MLL AF4-AF9 inh = blocks AF4 peptide binding to human AF9. AlphaScreen, biotin-AF4 peptide binding to FLAG-AF9. 350,000 tested, 0.47% active. inhibition, % at 10 µM. P42568;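 active = every replicate reaching a set inhibition limit, whatever the replicate mean, cut at about 25% in these data; inconclusive = mean inhibition reaches that limit but some replicates miss it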;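 note: 0% = plate neutral control median and 100% = total signal loss; the record names both 10 and 1 µM as test concentration; the first replicate is given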
Target sequence (P42568 whole entry, looked up): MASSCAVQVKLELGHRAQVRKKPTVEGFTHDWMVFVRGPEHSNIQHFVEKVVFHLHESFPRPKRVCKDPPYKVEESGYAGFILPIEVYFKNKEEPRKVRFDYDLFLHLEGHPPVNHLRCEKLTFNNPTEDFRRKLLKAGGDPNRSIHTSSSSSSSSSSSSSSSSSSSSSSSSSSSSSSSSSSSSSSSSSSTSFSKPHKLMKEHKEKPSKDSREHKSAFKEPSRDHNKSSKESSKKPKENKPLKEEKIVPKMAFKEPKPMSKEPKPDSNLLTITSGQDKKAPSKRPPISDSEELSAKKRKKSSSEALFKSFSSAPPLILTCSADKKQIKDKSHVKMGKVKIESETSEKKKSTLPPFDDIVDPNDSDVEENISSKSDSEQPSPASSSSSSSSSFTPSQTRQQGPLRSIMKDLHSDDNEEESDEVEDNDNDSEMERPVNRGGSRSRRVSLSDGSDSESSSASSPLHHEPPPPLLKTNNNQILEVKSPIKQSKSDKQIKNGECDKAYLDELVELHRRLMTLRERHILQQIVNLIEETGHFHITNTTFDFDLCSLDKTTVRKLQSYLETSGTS
E coli growth = inhibitors of Escherichia coli growth | OD600, 23 h; active compounds read low | OD600 absorbance (no concentration beside the values) | 330,000 tested, 0.21% active | AID 1053175;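 active = OD600 absorbance below the run mean of sample wells minus 3.6 SD, in any replicate, cut at about 0.56 in these data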;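 note: stock transfer was 300 nL into about 60 µL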
UCH37 DUB inh = human UCH37 deubiquitinating enzyme inhibition | purified proteasome/UCH37, Ub-AMC cleavage fluorescence | inhibition, % (concentration not given with the values) | 330,000 tested, 0.33% active;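 active = mean of two replicates above 20%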;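 note: 0% = compound-free wells with enzyme and 100% = wells lacking proteasome; stock transfer was 100 nL into about 20 µL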
Target sequence (Q9Y5K5 whole entry, looked up): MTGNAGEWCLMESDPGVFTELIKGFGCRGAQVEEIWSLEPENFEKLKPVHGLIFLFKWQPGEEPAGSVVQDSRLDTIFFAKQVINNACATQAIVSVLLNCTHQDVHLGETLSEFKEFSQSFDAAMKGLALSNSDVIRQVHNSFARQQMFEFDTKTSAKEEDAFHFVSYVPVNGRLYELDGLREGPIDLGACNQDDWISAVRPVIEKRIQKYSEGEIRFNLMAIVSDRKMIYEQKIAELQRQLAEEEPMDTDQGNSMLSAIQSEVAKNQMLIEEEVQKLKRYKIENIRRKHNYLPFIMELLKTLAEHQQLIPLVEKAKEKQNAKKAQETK
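System: Proteasome-associated human UCH37 deubiquitinase; Input: 0.15 nM proteasome in added enzyme buffer; Also added: Ub-AMC substrate from 1 µM stock; Incubation: 30 min compound-proteasome preincubation then 25 min substrate reaction, room temperature; Detection: fluorescence, ex 355 nm, em 460 nm; Read-out: % inhibition of Ub-AMC cleavage fluorescence; Benchmarks: no-proteasome and no-compound wells.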
Bfl-1 A1 inh = inhibitors of the anti-apoptotic protein A1, read as caspase activation. caspase activation, % (no concentration beside the values). 330,000 tested, 0.066% active. MEF A1-2A-BIM cells, Caspase-Glo 3/7 luminescence, 3 h; percent of clofoctol response, vehicle zero;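 active = over half of replicate activation scores above 10%, or exactly half above 10 with the replicate mean above 10; inconclusive = replicate mean below 10 yet half the replicates above 10; inactive = over half of replicates below 10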;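 note: wells of about 30 µL received 50 nL stock; many hits fall short of the cut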
FGF22 binding = binders of recombinant human FGF22 by thermal shift. Q9HCT0. SYPRO orange fluorescence; percent of sucrose octasulfate shift, DMSO zero. calls only at 9.99 µM. 340,000 tested, 1.5% active. AID 651658;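 active = melting point raised past a set limit in the mean and every replicate; inconclusive = no clear call; three in four hits are not shown here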
Target sequence (Q9HCT0 whole entry, looked up): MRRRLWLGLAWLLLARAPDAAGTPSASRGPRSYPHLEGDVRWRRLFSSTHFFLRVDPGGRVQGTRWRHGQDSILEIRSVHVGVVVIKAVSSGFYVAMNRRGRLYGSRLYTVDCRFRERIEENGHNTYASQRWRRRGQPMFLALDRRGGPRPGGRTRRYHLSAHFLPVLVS
T cruzi repl = T. cruzi replication inhibition | inhibition, % (concentration not given with the values) | 300,000 tested, 1.4% active | T. cruzi beta-gal in NIH3T3, luminescence, 90 h | AID 1885;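 active = mean inhibition across valid replicates above about 55%, limit read from the data; inconclusive = mean below that limit but half or more replicates reach it; inactive = mean below it, under half of replicates reach it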;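 note: signal also drops with host cell toxicity which is not excluded here; 0% = plate median of DMSO wells and 100% = zero luminescence signal; higher percent means less beta-gal luminescence so fewer parasites; stock transfer was 50 nL into about 50 µL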
Ecoli rRNA inh = selective bacterial rRNA inhibition in E. coli; 350,000 tested, 1.6% active; E. coli WT GFP vs humanized-ribosome RFP mutants, fluorescence, 24 h; active compounds read low; DMSO median 0, no signal -100; GFP signal change (wild-type ribosome), % (no concentration beside the values); AID 720706;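 active = significant combined selectivity score with lowered wild-type GFP, culture density cut under 30%, mutant RFP and density less affected; inactive = any of these conditions unmet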; note: one replicate is shown; some compounds called inactive have numbers as strong as hits
Beta apoptosis = blocks beta cell apoptosis. INS-1E cytokine-induced death, ATP luminescence, 48 h; percent of positive-control rescue, neutral wells zero. protection from apoptosis, % (no concentration beside the values). 300,000 tested, 0.8% active;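 active = all replicates at 75% or more, or half of them and the mean; inconclusive = half reach 75% but not the mean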;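 note: 0% = cytokine-treated negative control wells and 100% = positive control rescue; higher means more ATP so stronger rescue from cytokine killing; wells of about 40 µL received 100 nL stock; the first replicate is given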
Ecoli rRNA inh OD600 = second read-out of Ecoli rRNA inh, no call of its own (marks repeat the call); OD600 change, %; measured here: OD600 growth;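 optical density of the mix in the first replicate; 0 = DMSO median and -100 = no signal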
Ecoli rRNA inh RFP = second read-out of Ecoli rRNA inh, no call of its own (marks repeat the call); RFP signal change, %; measured here: RFP humanized mutant strains;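 first replicate; 0 = DMSO median and -100 = no signal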
An asterisk follows results filed as active; i = inactive; ? = inconclusive; . = not tested or not shown.

SMILES | MLL AF4-AF9 inh | E coli growth | UCH37 DUB inh | Bfl-1 A1 inh | FGF22 binding | T cruzi repl | Ecoli rRNA inh | Ecoli rRNA inh OD600 | Ecoli rRNA inh RFP | Beta apoptosis
O=C(Nc1nnc(SCc2ccccc2)s1)c1cccc([N+](=O)[O-])c1 | 5.0 | 0.66 | 1.0 | -5.2 | i | -8 | 23 | 14 | -5.4 | 15
Cc1ccc(S(=O)(=O)CCC(=O)N(CCN2CCOCC2)c2nc3ccccc3s2)cc1 | 0.3 | 0.75 | -0.2 | 0.0 | i | -19 | 15 | 13 | 2.9 | .
Cc1cc(C(=O)N2CCN(S(=O)(=O)c3ccccc3)CC2)c(C)o1 | -0.4 | 0.69 | 3.5 | 0.1 | i | -2 | 3 | 1 | 0.4 | -5
COc1cccc(/C=C/C(=O)OCC(=O)Nc2ccc3[nH]c(=O)[nH]c3c2)c1OC | -0.9 | . | . | -0.5 | . | -10 | 5 | 9 | 2.3 | -5
Cc1nnc(NC(=O)c2ccc(S(=O)(=O)C(F)F)cc2)s1 | -1.9 | 0.71 | 5.6 | -0.1 | i | -10 | 3 | 7 | 2.5 | 7
Cc1ccc(Cn2nnc3c(=O)n(Cc4cc(C)ccc4C)cnc32)cc1 | 2.7 | 0.71 | 1.2 | ? | i | 23 | 9 | -4 | 0.1 | 1
COc1cccc(CN(C)C(=O)COc2cccc3c2OC(C)(C)C3)c1OC | -18 | 0.65 | 2.5 | . | . | . | -1 | -1 | 0.4 | .
CCOC(=O)c1cc(-c2ccccc2)n(CC(=O)Nc2ccc(OCC)cc2)c1C | . | 0.67 | 1.2 | 1.3 | . | -16 | . | . | . | 2
Cc1cccc(C(=O)Nc2cccc(Br)c2)c1[N+](=O)[O-] | -15 | 0.63 | 0.1 | 0.9 | i | 20 | -28 | -30 | -10 | 0
CC(CCCN1CCCC1)Nc1ccnc2cc(Cl)ccc12 (stereo not given) | 14 | 0.73 | -8.9 | . | i | . | -6 | 11 | 11 | .
Cc1ccc(Cl)cc1N(Cc1ccc(C(=O)NCc2cccnc2)cc1)S(=O)(=O)c1ccccc1 | . | 0.67 | 1.5 | 0.2 | . | -2 | . | . | . | 1
COc1ccc(Cn2c(=O)[nH]c3cc(C(=O)N4CCN(c5ccccc5OC)CC4)ccc3c2=O)cc1 | . | 0.7 | 0.8 | -0.2 | . | 9 | . | . | . | 2
CCc1cccc(NC(=O)C2CCN(S(=O)(=O)c3c(C)noc3C)CC2)c1 | 1.7 | 0.69 | 1.5 | 1.0 | i | 25 | -12 | -7 | 0.7 | 2
COc1ccc(OC)c(NC(=O)CCS(=O)(=O)c2cc3c(cc2C)NC(=O)CO3)c1 | 0.1 | 0.68 | -2.2 | 0.3 | i | 11 | -5 | 10 | -8.8 | .
O=C(O)CSCC(=O)N1CCN(S(=O)(=O)c2cc(Cl)cc(Cl)c2)CC1 | -2.6 | 0.64 | 4.5 | -0.7 | i | -24 | -5 | -5 | -0.7 | 2
COc1cccc2cc(C(=O)N(Cc3cccs3)CC3CCCO3)c(=O)oc12 (stereo not given) | -2.7 | 0.67 | 1.6 | 0.0 | i | 14 | -8 | -16 | -6.7 | -1
CC(=NNS(=O)(=O)c1cccc([N+](=O)[O-])c1)c1ccc(-n2ccnc2)cc1 | -0.9 | 0.69 | 3.0 | -0.3 | i | . | 4 | 10 | -3.0 | -5
O=C(NCCN1CCNC1=O)C1CCC(=O)N(Cc2cccc(C(F)(F)F)c2)C1 (stereo not given) | -0.4 | 0.66 | 0.7 | 1.3 | i | -4 | 16 | 19 | 3.5 | -2
N#Cc1c(-c2ccc(F)cc2)cc(-c2ccccc2)nc1SCC(=O)NCC(=O)O | 4.1 | 0.65 | -1.9 | -0.1 | i | -13 | -9 | -16 | 7.9 | -1
CCOC(=O)Cn1nnc(-c2ccc([N+](=O)[O-])cc2)n1 | 2.2 | 0.68 | 4.3 | -1.3 | i | -6 | 7 | 9 | -1.9 | -4
Cc1cc(Cl)c2oc(C(=O)N(CCO)Cc3ccccc3)c(C)c2c1 | -1.1 | 0.63 | 1.8 | -0.2 | i | 2 | -45 | -71 | -15 | .
CN(C)CCNC(=O)C(c1ccccc1)c1ccccc1 | 4.4 | 0.67 | 3.3 | 0.0 | i | -3 | 1 | 10 | -0.2 | -6
CC1CCN(C(=O)CSc2nnc(Cc3ccccc3)o2)CC1 | -3.0 | 0.76 | -0.2 | 0.6 | i | 0 | 9 | -1 | 3.3 | -3
O=C(CN1C(=O)NC2(CCCC2)C1=O)Nc1ccccc1N1CCCC1 | 1.6 | 0.69 | 1.5 | -0.4 | i | 9 | . | . | . | -3
CCCNC(=O)CSC1=N/C(=C/c2ccc(F)cc2)C(=O)N1CC | -9.5 | 0.66 | 8.5 | 0.1 | i | -2 | -4 | 5 | -3.5 | -7
CC1(c2ccccc2)NC(=O)N(CC(=O)Nc2ccc(S(=O)(=O)Nc3ncccn3)cc2)C1=O (stereo not given) | 5.0 | 0.68 | -0.4 | -0.1 | i | -12 | 3 | 10 | -3.4 | -5
O=C(O)CCc1nc2cccnc2n1Cc1ccccc1 | . | 0.7 | 1.5 | 0.4 | . | -1 | . | . | . | 4
CC(C)CN1C(=O)c2ccc(C(=O)NCc3ccc4c(c3)OCO4)cc2C1=O | . | 0.7 | 1.3 | 1.4 | . | -3 | . | . | . | -6
COc1cccc(CNC(=O)Nc2cccs2)c1 | . | 0.72 | -0.6 | -0.5 | . | 4 | . | . | . | -4
CN(Cc1nccs1)C(=O)C1CCC(=O)N(CCCc2ccccc2)C1 (stereo not given) | -4.8 | 0.63 | 1.8 | . | i | -3 | 17 | 19 | 1.2 | .
Cc1ccc(OCCOC(=O)c2nc3nccc(C)n3n2)cc1 | 0.1 | 0.73 | -0.2 | 0.7 | i | -11 | 6 | 2 | 2.0 | -2
CC1Cc2ccccc2N1CC(=O)N(C)c1c(N)n(Cc2ccccc2)c(=O)[nH]c1=O (stereo not given) | 5.6 | 0.7 | 2.0 | -0.6 | i | . | 0 | 17 | 3.7 | -6
COc1ccccc1NC(=O)CSc1nnc(C)n1CC1CCCO1 (stereo not given) | . | 0.69 | 1.3 | -0.6 | . | -26 | 13 | 20 | 1.5 | -6
N#Cc1cnn(-c2ccccc2)c1NC(=O)CN1CCOCC1 | -4.8 | 0.7 | -1.7 | 0.7 | i | -11 | 6 | 8 | 0.1 | -3
CC(Oc1ccccc1)C(=O)N=C1SC2CS(=O)(=O)CC2N1c1ccc(F)cc1 (stereo not given) | 0.5 | 0.7 | -0.5 | -0.2 | i | 7 | 9 | 9 | 3.8 | -6
O=C1OC(c2ccc(Cl)cc2)=N/C1=C\c1cccnc1 | . | 0.76 | 4.4 | 1.0 | . | -17 | . | . | . | -7
CCOc1cc(NC(=S)NCCCN2CCOCC2)c(OCC)cc1NC(=O)c1ccc(C)cc1 | 4.6 | 0.7 | -43 | -0.4 | i | -2 | 15 | 15 | 0.6 | -1
CC(C)(SC(=S)N1CCCCCC1)C(=O)O | -0.7 | 0.69 | 0.7 | -0.1 | i | 29 | 10 | 12 | 0.3 | -3
CC(C)Oc1ccc(C2CC(=O)N(c3cccc(/C=C/C(=O)O)c3)C2=O)cc1 (stereo not given) | -12 | 0.7 | 2.1 | -0.7 | i | -9 | 2 | -2 | -1.0 | -12
CCCCC1CCC(C(=O)NCc2ccc3c(c2)OCO3)CC1 (stereo not given) | . | 0.68 | -2.8 | 0.3 | . | 10 | . | . | . | 2
COc1ccc(NS(=O)(=O)c2cccc(C(=O)OCC(=O)NC3CC3)c2)cc1 | -1.4 | 0.71 | 2.3 | 0.0 | i | 4 | . | . | . | -3
Cc1c(CCC(=O)NCCCn2ccnc2)c(=O)oc2c(C)c3oc4c(c3cc12)CCCC4 | . | 0.63 | -29 | 0.2 | . | 29 | . | . | . | -9
O=C(CSc1nc2ccccc2o1)NCc1ccco1 | . | 0.68 | 1.5 | -1.3 | . | -1 | . | . | . | -2
CNC(=O)C1CCN(S(=O)(=O)c2c(C)noc2/C=C/N(C)C)CC1 | 0.9 | 0.7 | 17 | 0.8 | i | -21 | 9 | 7 | -5.8 | 1
O=C(Oc1ccccc1)n1c(=S)oc2ccccc21 | -0.9 | 0.68 | 0.5 | -0.1 | i | 14 | 15 | 9 | -0.8 | -4
Cc1ccccc1N1CCN(C2CCCN(C(=O)c3csc(C(C)C)n3)C2)CC1 (stereo not given) | 4.0 | 0.63 | 5.7 | 0.6 | i | 21 | -9 | -21 | 1.4 | -4
COC(C(=O)Nc1c(F)cccc1F)c1ccccc1 (stereo not given) | -0.7 | 0.67 | 0.4 | 0.7 | i | -6 | 11 | 1 | -2.4 | -4
Cc1cccc(C(=O)NCCN2CCN(c3ccccc3)CC2)c1 | . | 0.66 | 0.5 | -0.1 | . | 10 | . | . | . | -3
CCOC(=O)C1=C(O)/C(=C/c2cn(CC(=O)NCC3CCCO3)c3ccccc23)SC1=Nc1ccc(C)cc1 (stereo not given) | . | 0.77 | 8.0 | 0.4 | . | . | . | . | . | 57
O=C(NC1=NCCS1)c1sc2cc(Cl)cc(Cl)c2c1Cl | . | 0.64 | 4.1 | 0.8 | . | -4 | . | . | . | 7
CCN1C[C@@H]2[C@@H]3C(=O)N(Cc4ccccc4)C(=O)[C@@H]3[C@](Cc3ccccc3)(C1=O)N2C(=O)c1ccc(Cl)c(Cl)c1 | 2.1 | . | 1.1 | . | i | . | 4 | 10 | -5.5 | .
OCCCn1c(C(CO)Nc2nc(-c3ccc(Cl)cc3)cs2)nc2ccccc21 (stereo not given) | -1.9 | 0.68 | 1.3 | -1.1 | i | -19 | -7 | -7 | -5.2 | -7
CC(C)CN(C(=O)COC(=O)CNC(=O)c1ccccc1F)C1CCS(=O)(=O)C1 (stereo not given) | -0.7 | 0.7 | 5.5 | -0.3 | i | 6 | 11 | 3 | -2.8 | -2
Cc1ccc(C(=O)Nc2ccc(Cl)cn2)cc1S(=O)(=O)N1CCOCC1 | . | 0.67 | 2.6 | 0.6 | . | 14 | . | . | . | -8
COC(=O)C1CC(=O)N(Cc2ccccc2)C1 (stereo not given) | -1.2 | 0.67 | 2.2 | 1.3 | i | -1 | 11 | 13 | 0.2 | 2

3 of these compounds in another layout:
| Molecule | MLL AF4-AF9 inh | E coli growth | UCH37 DUB inh | Bfl-1 A1 inh | FGF22 binding | T cruzi repl | Ecoli rRNA inh | Ecoli rRNA inh OD600 | Ecoli rRNA inh RFP | Beta apoptosis |
| --- | --- | --- | --- | --- | --- | --- | --- | --- | --- | --- |
| OCCCn1c(C(CO)Nc2nc(-c3ccc(Cl)cc3)cs2)nc2ccccc21 (stereo not given) | -1.9 | 0.68 | 1.3 | -1.1 | i | -19 | -7 | -7 | -5.2 | -7 |
| CC(C)CN(C(=O)COC(=O)CNC(=O)c1ccccc1F)C1CCS(=O)(=O)C1 (stereo not given) | -0.7 | 0.7 | 5.5 | -0.3 | i | 6 | 11 | 3 | -2.8 | -2 |
| Cc1ccc(C(=O)Nc2ccc(Cl)cn2)cc1S(=O)(=O)N1CCOCC1 | . | 0.67 | 2.6 | 0.6 | . | 14 | . | . | . | -8 |

Source: PubChem

The list is partial, so the mix of outcomes need not match the whole.
